H5N1 antiviral: MDCK cell protection from H5N1 avian flu; cytopathic effect, luminescence, 72 h; active compounds read high; no value below 0 was filed and about half of the inactive calls have no number; reference of the scale not given here; inhibition, % at 50 µM; 0.07% of 96,000 active; in the data active = inhibition above about 25%
The depositor's hits bear a star; i = inactive. An excerpt; count on the stated rates, not on these rows.

SMILES	H5N1 antiviral
CC(=O)/C=C(/C)NC(Cc1c[nH]c2ccccc12)C(=O)O (configuration not stated)	i
CCn1cnc2sc(C(=O)N3CCN(c4ccc(OC)cc4)CC3)c(C)c2c1=O	0.3
CCCCC(CC)CNC(=O)c1ccc2c(c1)OCO2 (configuration not stated)	i
Nc1nnnn1N=C1CCCCC1	0.1
Cn1nc(C(=O)NCc2ccccn2)c2ccccc2c1=O	i
COc1ccccc1N(CN1CCCC1=O)C(=O)c1c(F)cccc1F	i
COc1ccc(NC(=O)c2ccc(CNS(=O)(=O)c3cccc(OC)c3)cc2)cc1	i
CS(=O)(=O)N(CC(=O)NCCSc1ccc(Cl)cc1)c1ccc2c(c1)OCO2	i
Nc1nc(SCC(=O)C23CC4CC(CC(C4)C2)C3)n[nH]1	1.6
CC(C)CCN=Cc1c(O)n(-c2ccccc2)c(=O)c2ccccc12	i
O=C(CN1CCCC1=O)NC1(C(F)(F)F)NC(=O)N(Cc2ccccc2)C1=O (configuration not stated)	i
COc1cccc(C2NC(=O)c3sc(=S)n(-c4ccccc4)c3N2)c1 (configuration not stated)	10.5
Cc1ccc(-n2nnnc2SCC(=O)N2CCc3ccccc3C2)c(C)c1	0.6
Cc1cc(NC(=O)CSc2nnc(-c3cccs3)n2N)no1	i
CCn1c2ccccc2c2cc(NC(=O)c3ccco3)ccc21	0.4
O=c1cc(C(F)(F)C(F)F)oc2ccccc12	i
O=C(Cc1ccccc1)Nc1ccc(NC(=O)C2CC2)nc1	i
Cc1nn(C)c(C)c1S(=O)(=O)N(CC(=O)NCCN1CCOCC1)c1ccc(C(C)C)cc1	0.1
O=C(CCCCn1c(=O)c2ccccc2n(CC(=O)Nc2ccc(F)cc2)c1=O)NCc1ccco1	i
O=C(Nc1ccc2c(c1)OCO2)C1Cc2ccccc2CN1S(=O)(=O)c1cccs1 (configuration not stated)	0.5
CC(c1nnc(SCC(=O)N2CC(=O)Nc3ccccc32)n1Cc1ccccc1)N(C)C (configuration not stated)	0.1
O=C(Cn1cnc2ccccc21)Nc1cc(C(F)(F)F)ccc1N1CCOCC1	1.0
Cc1ccc(C(=O)COC(=O)c2cc(Cl)nc3ccccc23)cc1	i
CC(=O)C(C(C)=O)C(NC(=O)c1cccnc1)(C(F)(F)F)C(F)(F)F	0.3
c1ccc2c(c1)Cc1cc(CN3CCOCC3)ccc1-2	0.6
CSCCC1C(C#N)=C(N)Oc2n[nH]c(-c3cccs3)c21 (configuration not stated)	i
Cc1cc(C)c2c3c(sc2n1)C(=O)N(Cc1ccccc1)CC(=O)N3	0.1
C=CCn1c(=O)c2ccccc2n2c(SCc3nc(N)nc(Nc4ccccc4C)n3)nnc12	0.5
Cc1cccc(C(=O)Nc2ccccc2-c2nnn(CC(=O)Nc3ccc4c(c3)OCCO4)n2)c1	i
CNC(=O)CN(C1CCCCC1)S(=O)(=O)c1ccc(OC)c(Cl)c1	0.3

In another format: results already given
smiles | H5N1 antiviral
COc1ccccc1N(CN1CCCC1=O)C(=O)c1c(F)cccc1F | i
COc1ccc(NC(=O)c2ccc(CNS(=O)(=O)c3cccc(OC)c3)cc2)cc1 | i
CS(=O)(=O)N(CC(=O)NCCSc1ccc(Cl)cc1)c1ccc2c(c1)OCO2 | i
Nc1nc(SCC(=O)C23CC4CC(CC(C4)C2)C3)n[nH]1 | 1.6
CC(C)CCN=Cc1c(O)n(-c2ccccc2)c(=O)c2ccccc12 | i
O=C(CN1CCCC1=O)NC1(C(F)(F)F)NC(=O)N(Cc2ccccc2)C1=O (configuration not stated) | i
COc1cccc(C2NC(=O)c3sc(=S)n(-c4ccccc4)c3N2)c1 (configuration not stated) | 10.5
Cc1ccc(-n2nnnc2SCC(=O)N2CCc3ccccc3C2)c(C)c1 | 0.6
Cc1cc(NC(=O)CSc2nnc(-c3cccs3)n2N)no1 | i
CCn1c2ccccc2c2cc(NC(=O)c3ccco3)ccc21 | 0.4
O=c1cc(C(F)(F)C(F)F)oc2ccccc12 | i
O=C(Cc1ccccc1)Nc1ccc(NC(=O)C2CC2)nc1 | i
Cc1nn(C)c(C)c1S(=O)(=O)N(CC(=O)NCCN1CCOCC1)c1ccc(C(C)C)cc1 | 0.1
O=C(CCCCn1c(=O)c2ccccc2n(CC(=O)Nc2ccc(F)cc2)c1=O)NCc1ccco1 | i
O=C(Nc1ccc2c(c1)OCO2)C1Cc2ccccc2CN1S(=O)(=O)c1cccs1 (configuration not stated) | 0.5
CC(c1nnc(SCC(=O)N2CC(=O)Nc3ccccc32)n1Cc1ccccc1)N(C)C (configuration not stated) | 0.1
O=C(Cn1cnc2ccccc21)Nc1cc(C(F)(F)F)ccc1N1CCOCC1 | 1.0
Cc1ccc(C(=O)COC(=O)c2cc(Cl)nc3ccccc23)cc1 | i
CC(=O)C(C(C)=O)C(NC(=O)c1cccnc1)(C(F)(F)F)C(F)(F)F | 0.3
c1ccc2c(c1)Cc1cc(CN3CCOCC3)ccc1-2 | 0.6
CSCCC1C(C#N)=C(N)Oc2n[nH]c(-c3cccs3)c21 (configuration not stated) | i
Cc1cc(C)c2c3c(sc2n1)C(=O)N(Cc1ccccc1)CC(=O)N3 | 0.1

(next part)
SMILES	H5N1 antiviral
O=C(O)CC(SCc1ccc(C(=O)O)o1)C(=O)O (configuration not stated)	i
COc1ccc(C(=O)n2c(-c3ccco3)nc3ccccc32)cc1	i
COc1cccc(NC(=O)CSc2ccccn2)c1	0.4
CN(C)C(=O)Cn1c(SCC(=O)NC2CCCCC2)nc2ccccc21	i
CCOC(=O)C1=C(C)NC(SC(C)=O)=NC1c1ccc(OC(C)=O)c(OC)c1 (configuration not stated)	i
COc1ccccc1N1CCN(Cc2cc(Br)c(O)c3ncccc23)CC1	i
CN(C)CCN=Cc1c(O)n(-c2cccc3ccccc23)c(=O)[nH]c1=O	0.3
O=C1c2[nH]nc(-c3ccccc3O)c2C(c2cccc(Cl)c2)N1CC1CCCO1 (configuration not stated)	i
CCc1nnc(NC(=O)CCC(=O)NCC2CCCO2)s1 (configuration not stated)	i
O=C(NCc1ccccc1F)c1cccs1	2.6
Cc1ccc(CC(=O)Nc2nncs2)cc1	i
O=C(CSCc1cnn(-c2ccccc2)c1-n1cccc1)NCC1CCCO1 (configuration not stated)	0.1
O=C(Oc1c(Cl)cc(Cl)c2ccccc12)N1CCCCC1	0.9
O=C(CSc1nnc(CNC(=O)c2c(F)cccc2Cl)o1)NCc1ccc2c(c1)OCO2	0.8
C=CCN1C(=O)/C(=C2/C(=O)N(CC(=O)O)c3ccccc32)S/C1=N/c1nccs1	1.0
COc1ccc(OC)c(S(=O)(=O)n2nc(C)cc2C)c1	i
O=C(N/N=C/c1c(Cl)cccc1Cl)c1ccc(F)cc1	0.0
Cc1nc2[nH]c(=O)c3c(n2n1)NC1=C(C(=O)CC(C)(C)C1)C3c1ccccc1 (configuration not stated)	0.7
CCOC(=O)CC(=O)CSc1nnc2c(n1)[nH]c1ccccc12	1.3
CCn1c(SCC(=O)NCc2ccco2)nnc1-c1ccc(N)cc1	1.5
COc1ccc2[nH]cc(C(=O)CN3CCN(C/C=C/c4ccccc4)CC3)c2c1	i
COCCn1c(C)cc(C(=O)CSc2nnc(C)s2)c1C	0.5
COc1ccc(Sc2nnc(Cc3ccccc3)c3ccccc23)cc1	i
O=C(NCCCN1CCCCC1)c1ccc2c(c1)NC(=O)C(N1CCCCC1)S2 (configuration not stated)	0.9
N#Cc1ccc(C(=O)NCC(c2ccco2)N2CCCCC2)cc1 (configuration not stated)	0.4
O=c1[nH]cnc2c1C1(CCCC1)Cc1ccccc1-2	i
Cc1cc(C)c2nc3s/c(=C/c4ccccc4)c(=O)n3c2c1	i
CCN1CCN(C(c2cc(OC)c(OC)c(OC)c2)c2nnnn2C(C)C)CC1 (configuration not stated)	0.3
COC1(OC)N=C(N)C2(C#N)C(c3ccc(C)cc3)C12C#N (configuration not stated)	0.2
CC(C)CNC(=O)c1cc(-c2ccco2)on1	i
Cc1cc(C)cc(NS(=O)(=O)c2ccc3[nH]c(=O)[nH]c3c2)c1	1.2
O=S(=O)(NCCC1=CCCCC1)c1cccc(S(=O)(=O)N2CCOCC2)c1	i
COc1ccc(CNC(=O)C2CSCCS2)cc1 (configuration not stated)	i
Cc1oc2c(c1C(=O)c1ccccc1)C(=O)C(=O)c1ccccc1-2	i
O=C(Nc1ccccc1-c1nnc(SCc2ccccc2Cl)o1)c1ccccc1	i
Nc1nc(CN2CCN(Cc3ccc4c(c3)OCO4)CC2)nc(Nc2ccccc2)n1	i
N#CN=C1CCCCCN1CC(N)=O	0.3
O=C(COc1ccc2ccccc2c1)N1CCN(C(=O)c2cccnc2)CC1	i
CCOC(=O)C1=C(C)Nc2ccc(C)cc2S1	0.4
C=CCn1c(SCC(=O)N2CCN(C(=O)c3ccco3)CC2)nc2sc(CC)cc2c1=O	0.7
O=C(NCc1ccncc1)C1CCCCC1	0.2
CCCc1ccc(Oc2c(-c3ccc(O)c(C)c3O)n[nH]c2C)cc1	i
CC1=C(C(=O)OC(C)C)C(c2cccnc2)C2=C(CCCC2=O)N1 (configuration not stated)	i
Cc1cc(S(=O)(=O)Nc2c(C)ccc3nsnc23)ccc1F	i
O=C(Nc1nc(-c2ccccc2)cs1)C1CCCCN1S(=O)(=O)c1ccc(Cl)cc1 (configuration not stated)	8.1
CCOC(=O)C1=C(O)/C(=C\c2ccc(CNC(=O)C(=O)Nc3ccc(C)c(C)c3)o2)N=C1C	i
COc1ccc(-n2c(Cc3cccn3C)nnc2SCC(=O)Nc2nc(C)cs2)cc1	0.6
c1ccc(-c2nc(NCc3cccnc3)c3ccccc3n2)cc1	i
COc1ccc(CC(=O)N2CC(=O)N(CCc3ccccc3)C(=O)C2)cc1	0.4
CCCc1cc(=O)oc2c(CN3CCOCC3)c(O)ccc12	0.5

Other results follow:
SMILES	H5N1 antiviral
CCOC(=O)c1[nH]c(C)c(C(=O)Nc2cc(OC)ccc2OC)c1C	i
CCn1cc(C(=O)NCc2ccc3c(c2)OCO3)c(=O)c2cc(S(=O)(=O)N3CCOCC3)ccc21	0.2
COC(=O)Cn1cc(C(=O)OC)cc(Br)c1=O	1.4
CCOc1cc(C2NC(=O)N(C)C(C)=C2C(=O)OC)cc(Br)c1O (configuration not stated)	1.2
O=P(O)(c1ccccc1)c1ccccc1O	0.3
CCCCn1c(SCC(=O)N(CC)C2CCS(=O)(=O)C2)nnc1C(CC)N(C)C (configuration not stated)	0.2
CCc1nc(NCCN)c(C#N)c2c1CSC(C)(C)C2	i
Cc1c(N(C)C(=O)C2CCCN2S(=O)(=O)c2ccccc2)c(=O)n(-c2ccccc2)n1C (configuration not stated)	1.6
CC(NC1CCCC1)C(=O)Nc1ccccc1-c1ccccc1 (configuration not stated)	i
COC(=O)c1ccccc1NC(=O)CN(C)S(=O)(=O)c1cc(C)ccc1OC	i
Cc1noc(C)c1C(=O)N1CCOCC1	i
Cc1noc(C)c1COC(=O)c1ccc(S(=O)(=O)NCc2ccco2)cc1	2.2
CCOC(=O)Nc1ccc2c(c1)N(C(=O)CN(CC)CC)c1ccccc1C=C2	0.1
COc1ccc(CCNC(=O)CS(=O)Cc2nc(-c3cccs3)oc2C)cc1OC (configuration not stated)	1.3
CCOc1ccc(-n2c(SCC)nc3c(c2=O)SCC3)cc1	0.7
O=C(O)CSc1nnc(-c2cc3ccccc3o2)n1-c1ccccc1	0.3
CC(=O)N1c2ccccc2N(Cc2ccc(C)cc2C)C(=O)C1(C)C	i
Cc1cc(=O)[nH]c(SCC(N)=O)c1C#N	i
Cc1sc(NC(=O)Cn2nc(C(F)(F)F)cc2C)c(C(=O)OC(C)C)c1C	i
CC1(C)NC(=O)N(CCOCCSc2ccccc2)C1=O	0.5
COc1ccc(CCNC(=O)Cc2cc(OC)c(OC)cc2[N+](=O)[O-])cc1OC	2.0
Cc1ccc(S(=O)(=O)N2CCN(S(=O)(=O)c3ccc(C)cc3)C2c2ccccc2)cc1	1.4
CSc1ccccc1C(=O)NCCSC(C)(C)C	i
CC1(C)CC(=O)C(C=NCCN2CCN(C(=O)Cc3ccc(Cl)cc3)CC2)=C(O)C1	i
N=c1n(Cc2ccc(Cl)cc2)c2ccccc2n1CC(O)c1ccco1 (configuration not stated)	i
O=C(Nc1cccc2ncccc12)c1ccc2c(c1)OCCO2	0.9
COc1ccccc1C(=O)N1CCNC(=O)C1CC(=O)Nc1ccc(Cl)cc1 (configuration not stated)	0.2
O=C(Nc1ccc(O)cc1C(=O)O)c1ccc2c(c1)C(=O)N(Cc1ccco1)C2=O	0.1
Cc1ccc(OCC(O)Cn2c3ccccc3c3ccccc32)cc1 (configuration not stated)	i
CC1(C)CC(=O)c2sc(N)nc2C1	i
CCCNC(=O)Nc1cc(OCC)c(N2CCOCC2)cc1OCC	0.5
CC1=C(C(=O)OC(C)C)C(c2coc3ccccc3c2=O)C2=C(CCCC2=O)N1 (configuration not stated)	0.6
CCCn1c(C(Cc2ccccc2)NC(=O)COC)nc2ccccc21 (configuration not stated)	2.4
Brc1ccc(/C=N/Nc2ccc3ccccc3n2)cc1	i
CCOC(=O)C1CCN(S(=O)(=O)c2nc3nc(C)cc(C)n3n2)CC1	0.6
CCn1c(CNC(=O)c2cccs2)nnc1SCC(=O)Nc1cc(Cl)ccc1C	i
CC(NC(=O)CSc1n[nH]c(=O)n1C1CC1)C12CC3CC(CC(C3)C1)C2 (configuration not stated)	i
CCOc1cc(/C=N/N=C(/N)c2nonc2N)cc(Br)c1OCc1ccc(Cl)cc1	i
O=C(N/N=C/c1cccs1)c1cccc2cc[nH]c12	0.5
CCOC(=O)c1ccccc1NC(=O)COC(=O)C1=COCCO1	0.5
CCCCN1C(=O)C(O)(CC(=O)c2ccco2)c2cc(Br)ccc21 (configuration not stated)	i
CC(c1ccccc1)N1C(=O)c2ccccc2C1O (configuration not stated)	i
Cc1nn(-c2ccc(F)cc2)c(Cl)c1/C=C(\CCC(=O)O)c1nc2ccccc2s1	1.7
COc1ccccc1-n1cnnc1SCC(=O)c1ccc[nH]1	1.3
CCOC(=O)C1CCCn2c1nc1sc3c(c1c2=O)CCCC3 (configuration not stated)	4.7
CCn1cc(C(=O)NCC2CCCO2)c(=O)c2cc(S(=O)(=O)N(C)C3CCCCC3)ccc21 (configuration not stated)	i
C/C(CC(=O)NCc1ccco1)=N\NC(=O)Cc1ccc(Cl)cc1	i
CCOC(=O)Cc1ccc(NS(=O)(=O)c2ccc(SC)cc2)cc1	i
Cc1cc(Cl)c(S(=O)(=O)NCc2cccnc2)cc1OCC(N)=O	2.5
CCCCN(C)CCCNC(=O)CC1Oc2ccccc2NC1=O (configuration not stated)	i
O=C(COc1ccccc1)N1CCc2ccccc2C1	i
